# TRPML1 blocker = qHTS for Inhibitors of the Human Mucolipin Transient Receptor Potential 1 (TRPML1) | Mucolipin-1 (Homo sapiens), Q9GZU1 | TRPML1-inducible cells, Ca2+ dye fluorescence, FDSS; active compounds read low; inhibition of EC80 agonist-evoked calcium signal | activity change, negative = inhibition, % (no concentration beside the values) | 390,000 tested, 0.02% active | AID 624415, 2012; in the data active means activity change below about -50%; inconclusive means about -30% to -50%; inactive means above about -30%;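 note: stimulus is agonist 54-4 at its EC80 concentration; % is set by controls: 0 for no effect and ±100 for the full control effect; compound concentration not given in the record; the text of the record puts the active cut at -80%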
# Target sequence (Q9GZU1 whole entry, looked up): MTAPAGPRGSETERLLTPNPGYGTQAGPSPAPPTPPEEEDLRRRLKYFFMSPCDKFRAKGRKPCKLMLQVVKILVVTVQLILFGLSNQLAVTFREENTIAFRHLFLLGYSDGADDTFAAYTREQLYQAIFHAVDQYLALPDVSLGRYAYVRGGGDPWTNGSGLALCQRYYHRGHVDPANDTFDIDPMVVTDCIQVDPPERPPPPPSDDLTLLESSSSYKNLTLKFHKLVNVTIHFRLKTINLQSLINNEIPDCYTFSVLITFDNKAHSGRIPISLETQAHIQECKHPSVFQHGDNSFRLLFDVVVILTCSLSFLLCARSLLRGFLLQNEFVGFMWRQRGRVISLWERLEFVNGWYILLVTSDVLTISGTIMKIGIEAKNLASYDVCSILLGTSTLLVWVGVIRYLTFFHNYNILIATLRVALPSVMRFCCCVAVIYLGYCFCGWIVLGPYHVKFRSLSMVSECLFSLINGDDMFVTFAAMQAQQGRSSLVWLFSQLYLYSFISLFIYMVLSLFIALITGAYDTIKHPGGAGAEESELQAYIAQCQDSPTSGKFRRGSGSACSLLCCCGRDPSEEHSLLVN
#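 TRPML1-DL cells, Tet-induced overnight (~16 h, 37 °C) at 1,500 cells/well, were loaded with Ca8 no-wash dye plus quencher for 45-90 min at room temperature. Compounds were pinned during FDSS kinetic reading; agonist 54-4 at EC80 (4 uM final) then added.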
# TRPML1 agonist = qHTS for Agonists of the Human Mucolipin Transient Receptor Potential 1 (TRPML1); activation, % (concentration not given with the values); Mucolipin-1 (Homo sapiens), Q9GZU1; AID 624414, 2012; TRPML1-expressing cells, Ca2+ dye fluorescence, FDSS; host cell line not named in the record; reference of the full effect not given here; 410,000 tested, 0.12% active; in the data active = activation above about 50%; inconclusive = about 30% to 50%; inactive = below about 30%; note: 0% is about no effect; the text of the record puts the active cut at 80%
#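 Calcium fluorescence on an FDSS kinetic reader gave the read-out. Tet-induced TRPML1-DL cells were plated overnight, dye-loaded (Ca8 with quencher, 45-90 min, room temperature, dark), then read 110 s after compound addition, and again 110 s after 4uM final 54-4 (EC80).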
# * = called active by the depositor; u = inconclusive. Some of the compounds tested. The share of hits here may be higher or lower than overall.
Compound	TRPML1 blocker	TRPML1 agonist
CCc1cccc(NC(=O)Cn2c(=O)ccc3cc(S(=O)(=O)N4CCC(C)CC4)ccc32)c1	-4	1.7
COc1ccc2oc(=O)c(-c3nc(-c4cccs4)no3)cc2c1	10	-0.3
CCc1ccc(-n2nc(CO)c(C(=O)NCc3cccnc3)n2)cc1	-6	2.6
O=C(NCc1ccccc1)c1cnc(N2CCCCC2)c2ccccc12	-21	0.1
CC(C)CCN1C(=O)N(c2ccccc2)C(=O)C1CC(=O)Nc1ccc(Cl)cc1 (stereo not given)	-20	0.3
CC1CCN(S(=O)(=O)c2nnc(NC(=O)c3ccc(C(C)C)cc3)s2)CC1	-8	-0.6
Cc1ccc(C(=O)N(Cc2ccco2)Cc2sccc2C)cc1	36	4.2
Cc1ccc(S(=O)(=O)c2nnn3c2nc(N2CCOCC2)c2sccc23)cc1C	7	2.2
Cc1ccc(C)c(NC(=O)Cc2coc3cc(C)cc(C)c23)c1	-8	1.3
Cc1cccc(N2CCN(S(=O)(=O)c3cc(C(=O)Nc4ccc(Oc5ccccc5)cc4)ccc3F)CC2)c1C	u	1.1
CCn1cc(C(=O)N(C)Cc2ccccc2)c(=O)c2cc(S(=O)(=O)N3CCCCC3)ccc21	1	-0.1
CCOc1ccccc1N(CC)C(=O)c1cc2ccc3cccnc3c2[nH]1	11	1.2
COc1cc(OC)c(NC(=O)c2cc(C)nc3c2c(C)nn3-c2ccc(C)cc2)cc1Cl	-7	-0.7
O=C(CSCc1ccc(F)cc1)N1CCN(c2ccccc2F)CC1	15	1.6
COC(=O)c1ccc(Cn2c(SCC(=O)N(C)c3ccccc3)nc3ccccc32)cc1	-5	-0.1
COc1ccc(CSc2nc3ccncc3n2CC(=O)Nc2ccc(C)c(F)c2)cc1	3	-0.5
COc1ccc(Cl)cc1NC(=O)c1nn(-c2ccc(C)cc2)c(=O)n(C)c1=O	-9	-0.4
Cc1cccc(Cn2c(=O)n(CCC(=O)NCc3ccc4c(c3)OCO4)c(=O)c3sccc32)c1	22	0.0
COC(=O)c1ccc(NC(=O)CCNS(=O)(=O)c2cccc3nsnc23)cc1	-9	-0.7
Cc1ccc2sc(N(Cc3cccnc3)C(=O)CCOc3ccccc3)nc2c1C	10	1.7
O=C(Nc1ccc(F)cc1F)N1CCc2c(sc3c2CCCC3)C1c1ccc(F)cc1 (stereo not given)	30	11
COc1ccc(CNC(=O)Cc2ccc(NC(=O)N3CCCCc4ccccc43)cc2)cc1	19	2.7
COc1ccc(CNC(=O)c2cnn(-c3ccc(C)cc3)c2C2CCN(C(=O)OC(C)(C)C)CC2)cc1	16	0.9
CNC(=O)Cn1cc(S(=O)(=O)Cc2ccccc2F)c2ccccc21	-14	0.8
C[C@@H](/C=C/c1ccc2ccccc2c1)C1COC(=O)C[C@H]1O (stereo not given in full)	2	0.1
CNC(=O)c1c(NC(=O)c2cc(=O)c3ccccc3o2)sc2c1CCC2	6	1.1
COc1ccc(NC(=O)c2c(NCc3cccc(F)c3)sc3c2CCC3)c(OC)c1	-6	-0.6
CCc1ccc(CNCc2c(C(=O)O)n(Cc3cccc(F)c3)c3cc(OC)ccc23)cc1	-11	4.2
COc1cccc(-n2ccnc2SCC(=O)Nc2ccc(Cl)c(Cl)c2)c1	3	0.2
Cn1c(=O)c2c(-c3ccccc3)n3c4ccccc4nc(-c4ccccc4)c3c2n(C)c1=O	7	-0.7
Cc1cc(C)c(NC(=O)CSc2ncc3c(n2)-c2cc(Cl)ccc2N(C)S3(=O)=O)c(C)c1	-9	-0.2
COc1ccccc1CNS(=O)(=O)c1ccc2c(c1)NC(=O)C(C)C(=O)N2 (stereo not given)	-8	0.0
CNC(=O)c1cc2c(n(-c3ccc(C)cc3)c1=O)CC(C)(C)CC2=O	-14	-0.2
Cc1ccc(C(c2sc3nc(-c4ccco4)nn3c2O)N2CCN(c3ccc(F)cc3)CC2)cc1 (stereo not given)	6	3.2
COc1ccc(C(=O)N2CCN(c3nc4c(OC)cccc4s3)CC2)cc1OC	-27	2.1
Cc1cc(C(=O)Nc2cccc(F)c2)c2c(C)nn(-c3cccc(Cl)c3C)c2n1	-7	0.5
CCOC(=O)c1cc(NC(=O)c2ccc(C)cc2)c(=O)n2c1oc1ccc(Cl)cc12	-1	-0.2
CCCCN(C)CC(O)Cn1cc(/C=C/C(=O)c2ccc(Br)cc2)c2ccccc21 (stereo not given)	7	7.2
CCc1ccc(NC(=O)c2ccc3c(c2)N(Cc2ccc(C)cc2)CCS3)cc1	-5	-0.6
Cc1cccc(NC(=O)Cn2nnc(C(=O)Nc3ccccc3Br)c2N)c1C	34	0.1

# Entries of single compounds as entered above. Order of screens: TRPML1 blocker	TRPML1 agonist
# Cc1cccc(NC(=O)Cn2nnc(C(=O)Nc3ccccc3Br)c2N)c1C is listed as 34	0.1
# COc1ccc(C(=O)N2CCN(c3nc4c(OC)cccc4s3)CC2)cc1OC is listed as -27	2.1
# Cc1ccc(C(c2sc3nc(-c4ccco4)nn3c2O)N2CCN(c3ccc(F)cc3)CC2)cc1 (stereo not given) is listed as 6	3.2
# CCc1ccc(NC(=O)c2ccc3c(c2)N(Cc2ccc(C)cc2)CCS3)cc1 is listed as -5	-0.6
# CNC(=O)c1cc2c(n(-c3ccc(C)cc3)c1=O)CC(C)(C)CC2=O is listed as -14	-0.2

# New compounds follow
Compound	TRPML1 blocker	TRPML1 agonist
CC(=O)N1CCCc2cc(S(=O)(=O)Nc3ccc(OC(F)(F)F)cc3)ccc21	30	2.3
O=C(CN1CCN(Cc2ccc(F)cc2)C1=O)NCc1ccccc1	0	-0.6
CCOC(=O)c1c(C)[nH]c(CCC(=O)NCCCN2CCN(c3ccc(F)cc3)CC2)c1C	-26	1.6
COc1cc(OC)c(NC(=O)C(Cc2ccccc2)NS(=O)(=O)c2cccc3nsnc23)cc1Cl (stereo not given)	16	0.7
COC(=O)c1sccc1S(=O)(=O)N(CC(=O)Nc1cc(C)ccc1C)c1ccc(C)c(C)c1	-18	3.0
CCn1c(=O)c2sccc2n2c(CCC(=O)Nc3ccc(F)cc3)nnc12	6	-0.3
Cc1c(-c2nsc(NC(=O)c3cccs3)n2)nnn1-c1ccc(Cl)cc1	11	0.4
CCC1CCCCN1C(=O)Cn1c(=O)oc2cc(S(=O)(=O)N3CCCCC3)ccc21 (stereo not given)	12	-0.1
COc1ccc(-n2ccn(Cc3ccccc3C)c(=O)c2=O)cc1	-9	-0.1
COc1cc(/C=C(\C#N)C(=O)Nc2ccc(C)cc2)ccc1OCc1cc(=O)n2nc(C)sc2n1	4	-0.3
Cc1cc(NC(=O)c2cccnc2)cc(-c2nc3cc(Cl)ccc3o2)c1O	9	0.9
COC(=O)c1ccc(NC(=O)C(=O)NCC(c2cccnc2)N2CCN(c3ccccc3)CC2)cc1 (stereo not given)	-8	-0.2
Cc1ccc2[nH]c(=O)c3cc(C(=O)NCCCN4CCC(C)CC4)sc3c2c1	-16	0.6
CCCOc1ccc(NC(=O)CC2C(=O)N(c3cccc(OC)c3)C(=O)N2CCc2ccncc2)cc1 (stereo not given)	-8	-0.5
COc1ccc(CNCc2c(C(=O)O)n(Cc3ccc(F)cc3)c3cc(C)ccc23)cc1OC	1	-0.1
CN1CCc2c(sc3c2C(=O)NC(c2ccc(OC(=O)c4ccc(Cl)cc4)cc2)N3)C1 (stereo not given)	19	13
O=S(=O)(c1ccc(-c2cc(C(F)(F)F)on2)s1)N1CCN(c2ccc(F)cc2)CC1	-6	1.6
Cc1oc(-c2ccc(Cl)cc2)nc1CSc1nnc(C)n2c1cc1sccc12	-6	-0.5
Cn1c(=O)c2c(n3c4ccccc4nc13)NC(=O)CC2c1cccc(F)c1 (stereo not given)	16	-0.5
CCCn1c2ccccc2c2cnn(CC(=O)NCCCOC(C)C)c(=O)c21	3	0.4
Cc1ccc(-c2cc(C(=O)NCc3cnn(C)c3C)c3ccccc3n2)cc1C	-5	0.2
CCc1cc(=O)oc2c3c(c(Cl)cc12)OCN(Cc1cccc(OC)c1)C3	32	-0.3
COCCn1c(SCC(=O)Nc2cc(Cl)ccc2OC)nc2c([nH]c3ccccc32)c1=O	-10	1.2
O=C(NCc1ccc(Cl)cc1)c1cc2ccccc2o1	-11	0.4
COc1ccc(-c2cc(C(F)(F)F)nc(NCCc3ccccc3)n2)cc1	5	1.4
COc1ccc(NC(=O)C(c2ccccc2)N(C)C(=O)/C=C\c2ccc3c(c2)OCO3)cc1 (stereo not given)	1	-0.6
COc1ccc(C(=O)n2nc(-c3ccc(Cl)cc3)nc2NCc2ccco2)cc1	-9	-0.3
CCOC(=O)c1cc(-c2ccc(OC)cc2)n(CCC(=O)Nc2cccc(C(C)=O)c2)c1C	-3	1.3
CN1CCC(=O)N(C(CSc2ccc(Br)cc2)Cc2ccccc2)CC1 (stereo not given)	54	1.1
CCOc1ccc(S(=O)(=O)N2CCC(N3CCN(Cc4ccc(F)cc4)C(=O)C3=O)CC2)cc1	-11	-1.2
Cc1nc(N2CCOCC2)c2c(C(=O)N3CCN(c4ccc(Cl)cc4)CC3)c(C)oc2n1	-5	0.7
COc1cc(Br)c(/C=C(\C#N)c2nc3ccccc3[nH]2)cc1OC	-14	1.0
CCCNC(=O)c1ccc2c(c1)N=C(CCC)c1ccccc1S2	-8	-0.7
Cc1ccc(S(=O)(=O)Nc2cccc(-c3ccc(N4CCC(C)CC4)nn3)c2)s1	-8	-0.5
Cc1cccc(C)c1NC(=O)CSCc1cnn(-c2ccccc2)c1-n1cccc1	25	2.8
COc1ccc(-c2nc3ccccc3n3c(-c4cccc(C)c4)c4c(=O)n(C)c(=O)n(C)c4c23)cc1OC	-6	-0.1
CCCCSc1ncnc2c1sc1nc(N3CCOCC3)c3c(c12)CCCC3	1	0.2
COc1ccc(Cn2c(C(=O)O)c(CNCc3ccc(OC)cc3OC)c3ccc(C)cc32)cc1	-16	4.6
CCCCN1C(=O)C(O)(c2c(C)[nH]c3ccccc23)c2cc(Br)ccc21 (stereo not given)	-22	0.6
CCCOc1cccc(C(=O)Nc2ccc(-c3cc4ccccc4oc3=O)c(C)c2)c1	-11	0.2
Cn1c(=O)n(C)c2cc(N3CCOCC3)c(NS(=O)(=O)c3ccc(C(C)(C)C)cc3)cc21	-10	0.5
Cc1cccc(N2CCN(S(=O)(=O)c3cc(Br)cc4c3N(C(=O)C3CC3)CC4)CC2C)c1 (stereo not given)	-18	-0.9
CCN(CC)S(=O)(=O)c1ccc2c(c1)N(CC(=O)Nc1ccc(OC)cc1)C(=O)CS2	-5	-0.2
CCOc1ccc(C(=O)NCCc2sc(-c3cccc(F)c3)nc2C)cc1OCC	8	2.6
COc1ccc2cc(C(=O)NCc3ccc4c(c3)CCN4C(=O)c3ccc(C)cc3)[nH]c2c1	6	1.1
Cc1ccc(C)c(N2CCN(S(=O)(=O)c3cnc(N)nc3)CC2)c1	-6	0.8
Cc1oc(-c2cccc(Cl)c2)nc1CN1CCC(C(=O)NC(C)C)CC1	-14	-0.6
Cc1ccccc1CN1c2ccccc2-c2nc(SCC(=O)Nc3cc(F)ccc3F)ncc2S1(=O)=O	13	1.3
CC(C)c1ccc(NC(=O)N2CCN(c3ccc(Cl)c(Cl)c3)CC2)cc1	u	0.5
COc1ccc(C(=O)c2sc3nc(-c4ccc(F)cc4)ccc3c2N)cc1	-6	0.4

# Next part:
Compound	TRPML1 blocker	TRPML1 agonist
COc1ccc(C2CC(=O)Nc3c2c(=O)[nH]c2nc4ccccc4n32)cc1 (stereo not given)	-13	0.9
Cc1ccc(CNc2ncnc3c2c(-c2ccccc2)cn3-c2cccc(Cl)c2)cc1	16	-0.1
COc1ccc(-c2nc(C)c(CCNC(=O)c3ccccc3Br)s2)cc1OC	-21	2.5
CCOc1ccc(NC(=O)CC2C(=O)N(c3ccc(C)cc3)C(=O)N2CCC2=CCCCC2)cc1 (stereo not given)	-1	1.3
CCCCNC(=O)CCCn1c(=O)c2ccccc2n(CC(=O)Nc2ccccc2OCC)c1=O	-1	0.1
O=C(CN1C(=O)CCc2cc(S(=O)(=O)N3CCCCC3)ccc21)NCc1ccc(Cl)cc1	-9	0.0
CC1CCN(c2cc3c(cc2F)c(=O)c(S(=O)(=O)c2ccc(Cl)cc2)cn3C)CC1	-1	-0.3
O=C(Nc1ccc(Cl)cc1)c1ccc(-n2cnnc2)cc1	8	-0.8
CCc1cccc(NC(=O)C(CC)n2nc(C)c3sc4ccccc4c3c2=O)c1 (stereo not given)	17	1.2
CCN1CCN(C(=O)c2ccc3c(c2)N(Cc2cccc(Cl)c2)C(=O)c2ccccc2S3(=O)=O)CC1	-3	0.3

# High-throughput results: PubChem BioAssay, National Center for Advancing Translational Sciences (NCATS)
